Source: PubChem (Center for Chemical Genomics, University of Michigan)
CDC25B CDK2 inh: primary biochemical HTRF screen for blockers of M-phase inducer phosphatase 2 binding to CDK2/cyclin A | 0.72% of 94,000 active | z-score (test concentration not listed) | HTRF CDC25B-CDK2/CyclinA binding, anti-His/anti-Flag; stronger effect = higher value | P30305+P24941;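 further: score is relative to mean and SD of negative controls; strong numbers were not always called active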
HIV TAR-Tat: TAR RNA-Tat peptide displacers, HIV-1, primary screen, biochemical, FRET, FAM/TAMRA-labeled Tat | HIV-1 TAR RNA, Tat peptide displacement FRET; stronger effect = higher value | AID 1259389, 2018 | 0.6% of 100,000 active | z-score (test concentration not listed);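 further: score is relative to mean and SD of negative controls; some compounds called inactive have numbers as strong as hits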
Starred values were filed as active, the others as inactive; . = not tested or not shown.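 How the source made its calls: active means z-score from 3 up in half or more of its runs; inactive means the rest.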

Values run as follows: CDC25B CDK2 inh, HIV TAR-Tat
COC(=O)c1sc(N2C(=O)C(O)=C(C(=O)c3cccs3)C2c2ccc(Cl)cc2)nc1C (configuration not stated)
→ -0.26, -1.7
CCCS(=O)(=O)c1c(S(=O)(=O)CCC)c2ccccn2c1C(=O)c1ccccc1
→ -0.78, -0.06
Cc1nc(N2CCOCC2)cc(N2CCN(C(=O)c3ccco3)CC2)n1
→ -0.62, 0.65
Cc1ccsc1CCNC(=O)c1cnc(N2CCCC2)nc1
→ 0.75, 0.48
CN1NC2(CCCCC2)N(c2ccccc2)C1=S
→ 0.11, .
Cc1ccccc1CSc1nc2n(n1)C(c1cccs1)C1=C(CCCC1=O)N2 (configuration not stated)
→ -2.3, .
CCc1ccc(-n2c(=S)sc3c(=O)[nH]c(SCC(=O)N4CCCC4)nc32)cc1
→ ., 1.1
O=C(O)c1ccccc1C(=O)Nc1cc(C(F)(F)F)ccc1N1CCCC1
→ 1.6, .
COc1ccc(OC)c(Sc2ccc([N+](=O)[O-])cn2)c1
→ -1.8, .
CC(C)c1ccc(C(=O)CC2(O)C(=O)N(Cc3ccccc3)c3ccccc32)cc1 (configuration not stated)
→ 0.35, .
COc1ccc(C(=O)/C(C#N)=C/N(C)C)cc1
→ -0.74, .
O=C(NNC(=O)c1ccc(Cl)cc1)Oc1ccccc1
→ -1.6, .
COc1ccc(CNc2nc(SCc3cc(=O)n4cc(Cl)ccc4n3)nc3ccccc23)cc1
→ ., -0.22
COc1cccc(-c2nc(SCc3cc(=O)n4cc(C)sc4n3)n[nH]2)c1
→ ., 0.06
O=C(Cn1nnc2sc3c(c2c1=O)CCCC3)Nc1ccccc1Cl
→ -0.91, -0.21
COc1cc(OC)c2c(C(=O)O)cc(-c3ccc(O)c(OC)c3)nc2c1
→ -1.7, -0.14
CCOC(=O)c1c(NC(=O)C2CCCCC2)sc(C(=O)NC2CCCC2)c1C
→ -2.7, .
O=S1(=O)C[C@H](NCCc2ccccc2F)[C@@H](S(=O)(=O)c2cccs2)C1
→ -1.6, -2.5
COc1ccccc1Nc1nc(C)cs1
→ -0.58, 0.84
O=C(Nc1ccc2nc3n(c(=O)c2c1)CCCCC3)C(=O)Nc1ccccc1F
→ -0.64, 0.56

New compounds follow:
Values run as follows: CDC25B CDK2 inh, HIV TAR-Tat
COc1ccc(OC)c(-c2nc3c(c(=O)[nH]2)Cc2cccc(OC)c2O3)c1
→ -0.94, 1.8
Cc1ccc2nc(C)c(Cc3nnc(SCCOc4ccccc4C)n3C)c(=O)n2c1
→ -0.45, -1.5
Cc1cc(=O)[nH]c2c1c(=O)[nH]n2C(C)C
→ -0.1, 2.5
Cn1c(=O)oc2cc(S(=O)(=O)Nc3ccc(F)c(F)c3)ccc21
→ 1.6, 0.68
CCc1nn(CC(=O)N2CCN(C)CC2)c(=O)c2cccn12
→ -2.2, 1.8
CCCCNC(=O)CNC(=O)Cn1cnc2sc(C)c(C)c2c1=O
→ ., 1.8
CCOc1ccc(-c2n[nH]c3c2C(c2ccc(F)cc2)NC3=O)cc1 (configuration not stated)
→ 1.2, 0.42
Cc1ccc2occ(CC(=O)N(Cc3ccc(C(C)C)cc3)C3CCS(=O)(=O)C3)c2c1 (configuration not stated)
→ -0.04, 1.1
OC(CN1CCN(c2ccccc2F)CC1)Cn1nnnc1-c1ccccc1 (configuration not stated)
→ -1.7, 1.1
Cc1cc(C(=O)N2N=C(C3CC3)CC2(O)C(F)F)cs1 (configuration not stated)
→ -0.3, .
CC12CCC3c4ccc(OCc5ccccc5)cc4CCC3C1C[C@@H](O)[C@@H]2O (some centres not stated)
→ ., 1.3
Cc1cc2c3c([nH]c2cc1S(=O)(=O)Nc1ccc(F)c(F)c1)CC(C)(C)CC3=O
→ ., -1.2
COC(=O)c1cc(S(=O)(=O)N2CCN(Cc3ccc4c(c3)OCO4)CC2)cn1C
→ ., 0.54
CN(C(=O)CN1N=NC2C(=O)N(c3ccc(Br)cc3)C(=O)C21)c1ccccc1 (configuration not stated)
→ ., 1.1
O=C1CCc2cc(S(=O)(=O)NC3CCCC3)cc3c2N1CC3
→ ., 0.74
CN(CCc1ccccn1)Cc1cccc(F)c1
→ 0.07, 0.98
COc1cc(NC2=NS(=O)(=O)c3ccccc32)c(OC)cc1Cl
→ -0.35, 3.1
CCCn1c(=O)c2ccc(C(=O)NC3CCCC3)cc2n2c(=O)[nH]nc12
→ -1.5, 0.88
N#C/C(=C\c1ccc(Cl)c(Cl)c1)c1ccc(NC(N)=O)cc1
→ -1.8, .
O=C(Nc1ccccc1)C1=C(N2CCOCC2)c2ccccc2S1(=O)=O
→ ., 1.4

Record cards, from the list above. Order of screens: CDC25B CDK2 inh	HIV TAR-Tat
Cc1cc(C(=O)N2N=C(C3CC3)CC2(O)C(F)F)cs1 (configuration not stated) is listed with -0.3	.
CN(C(=O)CN1N=NC2C(=O)N(c3ccc(Br)cc3)C(=O)C21)c1ccccc1 (configuration not stated) is listed with .	1.1
Cc1ccc2occ(CC(=O)N(Cc3ccc(C(C)C)cc3)C3CCS(=O)(=O)C3)c2c1 (configuration not stated) is listed with -0.04	1.1

More structures follow:
Values run as follows: CDC25B CDK2 inh, HIV TAR-Tat
C=C(CC(=O)N1CCOCC1)C(=O)N1CCOCC1
→ -0.6, .
COc1ccc(S(=O)(=O)c2cnc3cc(OC)c(OC)cc3c2N2CCCCC2)cc1
→ -2, 1.6
COC(=O)c1c(SCC(=O)Nc2ccc(OC)c(OC)c2)[nH]c2ccc(Cl)cc2c1=O
→ ., 0.27
N#CC12C(N)=NC3(OCCO3)C1(C#N)C2c1ccc(Cl)cc1 (configuration not stated)
→ -1.9, .
COCCNC(=O)C(=O)Nc1c2c(nn1-c1ccc(F)cc1)CSC2
→ ., 1.4
COCCNC(=O)c1c(NC(=O)c2cc(=O)c3c(C)cc(C)cc3o2)sc2c1CCCC2
→ -1, 1.6
O=S(=O)(NCCCn1ccnc1)c1ccc2c(c1)OCCO2
→ -0.54, 0.33
Cc1c(C(=O)N2CCOCC2)sc2nc3n(c(=O)c12)N=C(c1ccc(Cl)cc1)CS3
→ ., 0.82
COc1ccccc1Nc1nc2ccccc2nc1-n1nc(C)cc1C
→ 0.38, -0.46
COc1ccccc1CC(=O)O/N=C/c1ccc2c(c1)OCO2
→ -1.9, .
CC(C)NC(=O)C1CCN(C(=O)c2ccc(-n3ccc4ccccc43)s2)CC1
→ ., 1
CC(=O)c1ccc(NC(=O)c2cc(-c3ccc4c(c3)OCO4)on2)cc1
→ 0.3, .
O=c1cc(COc2cccc(NS(=O)(=O)c3ccccc3)c2)nc2ccc(Cl)cn12
→ ., -0.27
c1ccc(N2CCN(c3ncnc4c3cnn4-c3ccccc3)CC2)cc1
→ ., 0.88
CN(C)c1cc(NCc2ccco2)c2c3c(onc13)-c1ccccc1C2=O
→ -2, -4.8
Cc1ccc(S(=O)(=O)c2nnn3c2nc(NC(C)C)c2sccc23)cc1
→ ., -1.4
Cc1nc2c(C)cccn2c(=O)c1Cc1nnc(SCC(=O)N2CCCc3ccccc32)n1C
→ -1.3, -1.4
CC(=O)OCC(=O)[C@@]1(O)[C@H](C)CC2C3CCC4=CC(=O)C=C[C@]4(C)[C@@]3(F)[C@@H](O)C[C@@]21C (some centres not stated)
→ ., 1.1
CCOC(=O)C1=C(c2ccccc2)N=C2SCC(=O)N2C1c1ccccc1OC (configuration not stated)
→ -1.7, 1.8
Cn1c(SCc2cc(=O)c3cc(F)ccc3[nH]2)nnc1-c1ccco1
→ ., 1.2

Other results:
Values run as follows: CDC25B CDK2 inh, HIV TAR-Tat
COc1ccc(-c2nc(SCc3cc(=O)c4ccc(C)c(C)c4[nH]3)n[nH]2)cc1
→ ., -0.19
O=C(NCc1ccco1)c1cnn2c(C(F)F)cc(-c3ccccc3)nc12
→ -0.74, -0.53
Cc1nn(-c2ccc(N3CCOCC3)nn2)c(C)c1CCC(=O)N1CCN(c2ccc(F)cc2)CC1
→ ., -0.47
Cc1nn(-c2nc3ccccc3s2)c2c1C(c1cc(F)cc(F)c1)CC(=O)N2 (configuration not stated)
→ -0.36, 1.1
O=C(Cn1cnc2c(nnn2-c2cccc(Cl)c2)c1=O)N1CCOCC1
→ -1.3, -0.31
O=S(=O)(c1ccc2nc(Nc3cccc(F)c3)ccc2c1)N1CCCCC1
→ ., -0.43
CC(=O)Nc1nonc1-c1nc2ccccc2n1CC1CC1
→ -0.45, 0.93
Cc1cc(C)nc(NC2=NCC(=O)N2c2ccc(C)c(Cl)c2)n1
→ -1.7, -0.2
CC1CS(=O)(=O)N(c2ccc(C(=O)N3CCCC3)cc2)C1=O (configuration not stated)
→ -2.1, 0.08
COc1ccc(C(=O)OCc2cc(=O)n3nc(C)sc3n2)cc1
→ ., -1.4
c1csc(-c2nn3cnnc3s2)c1
→ -0.82, 0.39
CCC(C)NC(=O)c1ccc2c(=O)n(C)c3n[nH]c(=O)n3c2c1 (configuration not stated)
→ -1.5, -1.2
O=C(Cn1c(=O)sc2ccccc21)Nc1nc(-c2ccc(Br)cc2)cs1
→ -0.71, -1.8
CC(=O)N1N=C(c2ccco2)CC1c1ccc(Br)cc1 (configuration not stated)
→ -1.1, .
COc1ccc(NC(=O)c2cnn3c(C(F)(F)F)cc(-c4ccco4)nc23)cc1
→ 0.03, -0.7
CCOC(=O)c1c(C)oc2ncnc(Nc3ccc(Cl)cc3)c12
→ ., 0.8
O=C(c1cnc2cc(-c3ccccc3)nn2c1)c1ccccc1O
→ -2.4, -1
Cc1ccc(S(=O)(=O)C(C#N)=C2SCCS2)cc1
→ -1.8, .
CCCNC(=O)Cn1cnc2sc(C(=O)N(C)CCc3ccccn3)c(C)c2c1=O
→ ., 1.2
Cn1cc(C(c2cccs2)c2cn(C)c3ccccc23)c2ccccc21
→ -0.96, 0.66

The results go on:
Values run as follows: CDC25B CDK2 inh, HIV TAR-Tat
CCCn1cc(S(=O)(=O)c2ccc(CC)cc2)c(=O)c2cc(F)c(N3CCN(C)CC3)cc21
→ ., -0.08
CCOC(=O)C1=C(C)Nc2nc(C)nn2C1c1ccc(C)cc1 (configuration not stated)
→ -1.1, -1.1
COC(=O)c1sccc1S(=O)(=O)N1CCN(c2ccc(OC)cc2)CC1
→ ., 1.7
COc1ccc(-c2nn3c(=O)cc(COc4ccc(Cl)c(C)c4)nc3s2)cc1
→ -0.09, 1.1
O=C(O)CSc1nc2ccccc2s1
→ -1, 0.19
Cc1ccc(C)n1-c1ccc(C(=O)NNC(=O)COc2ccccc2)cc1
→ -0.57, .
CN(C)/C=N/NC(=O)c1cc(C(C)(C)C)[nH]n1
→ -0.8, .
Cc1c(C(=O)NCCCN2CCOCC2)sc2nc3n(c(=O)c12)CCCCC3
→ ., 1.5
O=C(C1CCCCC1)N1CC(=O)N2CCc3ccccc3C2C1 (configuration not stated)
→ -0.97, 1.1
O=C(CSc1nccc(-c2cccs2)n1)c1ccccc1
→ -1.3, .
CCc1ccccc1-n1ncc2c1ncn1nc(-c3ccncc3)nc21
→ -0.71, 0.81
Cc1nn(-c2nncc(-c3ccc(F)cc3)n2)c2c1C(c1cccc(F)c1F)CC(=O)N2 (configuration not stated)
→ -1.4, 1.1
Cc1csc2ncc(C(=O)Nc3ccc(Br)cc3)c(=O)n12
→ 0.54, .
Cc1csc2sc(C=N/C(C#N)=C(\N)C#N)c(C)c12
→ -1.8, .
O=C(NCc1cccs1)c1nn(-c2ccc(Cl)cc2)nc1CO
→ -1.4, 0.61
Cc1ccc(C)c(Oc2coc3cc(OCC(=O)OCC(C)C)ccc3c2=O)c1
→ -0.95, 1.4
COc1ccc(-n2c(Cc3cccn3C)nnc2SCC(=O)Nc2ccc3c(c2)OCO3)cc1
→ -0.37, -0.02
N#Cc1c(OCC(F)(F)F)ccc(S(=O)(=O)N2CCOCC2)c1OCC(F)(F)F
→ -2.6, .
Brc1ccc2c(c1)C1CC(c3ccccc3)=NN1C(c1cccnc1)O2 (configuration not stated)
→ -1.2, -0.78
OCC1(CO)COC2(CCN(Cc3ccccc3)CC2)N1
→ -1.6, .

Carrying on.
Values run as follows: CDC25B CDK2 inh, HIV TAR-Tat
Cc1nn2cc(-c3ccc(Cl)cc3)nc2s1
→ 1.3, 1.2
CC1=C(c2ccc(F)cc2)S(=O)(=O)N=C1N1CCN(C)CC1
→ ., 0.96
Cc1cc2nc(CSc3nnc(NC(=O)C4CC4)s3)c(=O)[nH]c2cc1C
→ ., -2.8
Cc1ccc(N(C)S(=O)(=O)c2c(C)noc2/C=C/N(C)C)cc1F
→ ., 1.5
Cc1ccc(C)c(CSC2=NS(=O)(=O)c3ccc(C)cc3N2)c1
→ ., 1.2
O=c1c(SCc2ccc(F)cc2)nccn1-c1ccc(Cl)cc1
→ ., 0.71
S=C(NCc1ccco1)N/N=C/c1ccc(Cl)c(Cl)c1
→ -1.8, .
CCOc1ccc(-c2noc(CSc3nnc(-c4ccncc4)n3-c3ccc(C)cc3)n2)cc1
→ -0.03, 0.9
O=C(CN1N=NC2C(=O)N(c3ccc(Br)cc3)C(=O)C21)Nc1ccccc1F (configuration not stated)
→ ., -0.45
COc1cccc(-n2nnc(-c3nc(-c4ccncc4)no3)c2N)c1
→ ., -1.2
O=C(CSc1nnc2scc(-c3ccc(Cl)cc3)n12)c1ccccc1
→ 0.1, -0.42
Cc1ccc(S(=O)(=O)c2nc(S(C)(=O)=O)sc2N2CCCC(C)C2)cc1 (configuration not stated)
→ 0.63, 0.75
Cc1cc(C)n(-c2nc3ccccc3nc2Nc2ccc(N(C)C)cc2)n1
→ -1, -3.7
Cc1ccccc1-c1nc(SCC(=O)Nc2ccc3c(c2)OCO3)n2[nH]c(=O)cc2n1
→ ., -0.19
CCCCc1nn2c(=O)cc(COC(=O)COc3ccccc3)nc2s1
→ ., -0.89
O=C(CSc1nncn2c1cc1sccc12)Nc1ccccc1F
→ ., 2.7
COc1cc(S(=O)(=O)NCC2COCCO2)ccc1-n1cnnn1 (configuration not stated)
→ -0.64, -0.87
CCc1ccc(NS(=O)(=O)c2ccc(-c3ccc(=O)[nH]n3)s2)cc1
→ ., -0.49
O=C(Nc1nc2c(s1)CCCC2)Nc1ccc(Br)cc1F
→ ., -0.39
